Cruzain noTriton = blocks cruzain activity in detergent-free assay. P25779. purified cruzain, Z-FR-AMC fluorescence, no detergent. Potency, µM, inactives show max response, negative = inhibition, usual class: inhibitors. 2.3% of 200,000 active. AID 1476; active = well fitted curve in the direction sought with a large enough effect; inconclusive = small, poorly fitted or top-dose-only effect, or another doubt; inactive = no such curve, though single readings can be large; an effect the other way counts as inactive or inconclusive;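 also: plate controls were enzyme without inhibitor for no effect and buffer without enzyme for full effect; nearly all actives have a fitted effect of over 40% in size; top concentration of the series not given in the record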
Target sequence (P25779 123-467 limits assumed): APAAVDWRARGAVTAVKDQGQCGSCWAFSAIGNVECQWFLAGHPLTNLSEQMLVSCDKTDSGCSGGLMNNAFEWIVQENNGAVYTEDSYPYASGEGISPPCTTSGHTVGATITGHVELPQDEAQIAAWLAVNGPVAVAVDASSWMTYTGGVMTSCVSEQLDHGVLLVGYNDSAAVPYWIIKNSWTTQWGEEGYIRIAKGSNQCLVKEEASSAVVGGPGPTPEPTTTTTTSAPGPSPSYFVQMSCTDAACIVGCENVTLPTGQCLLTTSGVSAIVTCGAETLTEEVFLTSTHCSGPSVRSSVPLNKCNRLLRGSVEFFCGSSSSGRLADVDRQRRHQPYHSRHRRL
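Detergent-free condition (0.00005% Triton X-100) in acetate buffer pH 5.5 with DTT. 1.5 nM enzyme and compound were pre-mixed 15 min, then 2 uM Z-FR-AMC substrate added; reaction progress from fluorescence change between first and third reads (60 s).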
SARS PLP yeast = blocks SARS-CoV papain-like protease in a yeast assay; S. cerevisiae expressing SARS-CoV PLpro, growth rescue; control for the full effect not named in the record; Potency, µM (highest dose often 32.9 µM), inactives show top-dose activity, positive = growth rescue; 0.19% of 330,000 active; also: 0% is about no effect; nearly all actives have a fitted effect of over 55% in size; growth read by luminescence after 48 h
RE007 growth inh = less growth of the S. pombe RE007 Vpr strain; Potency, µM (doses to about 92.2 µM), inactives show top-dose activity change, negative = less growth; S. pombe RE007 Vpr strain, BacTiter-Glo ATP luminescence, 24 h; control for the full effect not named in the record; 0.21% of 360,000 active; active = well fitted falling curve with a large enough effect; inconclusive = small, poorly fitted or top-dose-only effect; inactive = no such curve, though single readings can be large or run the other way;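 also: % is scaled to controls: 0 for no effect and ±100 for the full control effect; nearly all actives have a fitted effect of over 50% in size; the assay follows cell death caused by Vpr and the record does not say whether a fall means rescue or toxicity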
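Fission yeast RE007 carrying one integrated HIV-1 vpr copy, seeded at OD 0.01 in PMG+AL medium with 23 nL pinned compound. Grown 24 h at 30 degrees; viability read by BacTiter-Glo luminescence after 5 min.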
Cruzain Triton = inhibitors of Trypanosoma cruzi cruzain with detergent | Potency, µM, inactives show max response, negative = inhibition, actives largely listed as inhibitors | purified cruzain, Z-FR-AMC fluorescence, 0.01% Triton | 0.43% of 200,000 active | P25779; active = well fitted curve in the direction sought with a large enough effect; inconclusive = small, poorly fitted or top-dose-only effect, or another doubt; inactive = no such curve, though single readings can be large; an effect the other way counts as inactive or inconclusive;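 also: plate controls were neutral wells for no effect and buffer without enzyme for full effect; nearly all actives have a fitted effect of over 40% in size; top concentration of the series not given in the record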
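Z-FR-AMC hydrolysis (2 uM substrate) by cruzain (1.5 nM) monitored kinetically at ex 360/em 450 nm after 15 min room-temperature compound exposure; 0.01% Triton X-100, pH 5.5, 5 mM DTT.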
NS1 inh = inhibitors of influenza NS1 protein function; S. cerevisiae slowed by influenza A NS1, growth recovery by OD600; Potency, µM (titrated, usually from 46.1 µM), inactives show at the highest dose activity, positive = more growth; 0.4% of 270,000 active; AID 2326; also: actives are rising curves; nearly all actives have a fitted effect of over 50% in size
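OD600 was taken as the measure of yeast growth restored by compound in an NS1-expressing S. cerevisiae strain. Cells had been washed out of glucose medium and diluted 1:100 into galactose -URA medium, pH 6.0.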
MARV entry inh = inhibitors of Marburg virus binding or cell entry; Marburg virus pseudotyped entry inhibition, cell reporter; control for the full effect not named in the record; about a third of the inactives were read at about 46 µM; Potency, µM (series often up to 37.8 µM), inactives show at the top dose activity change, negative = inhibition, most hits filed as inhibitors; 1.8% of 300,000 active; AID 540276; active = well fitted inhibition curve with a large enough effect; inconclusive = small, poorly fitted or top-dose-only effect, or effect the other way; inactive = flat fitted curve, though single readings scatter; tested in HEK293 cells; about a fifth of its hits are not listed in these tables; also: % is scaled to controls: 0 for no effect and ±100 for the full control effect; luciferase read-out
LASV entry inh = inhibitors of Lassa virus binding or cell entry. Lassa virus pseudotype entry inhibition, cell reporter; control for the full effect not named in the record. Potency, µM (titrated, usually from 37.9 µM), without a hit: top-dose activity change, negative = inhibition, actives largely listed as inhibitors. 1.2% of 300,000 active. AID 540256; active means well fitted inhibition curve with a large enough effect; inconclusive means small, poorly fitted or top-dose-only effect, or effect the other way; inactive means flat fitted curve, though single readings scatter; tested in HEK293 cells; also: % is scaled to controls: 0 for no effect and ±100 for the full control effect; nearly all actives have a fitted effect of over 50% in size; luciferase read-out
2A StopGo = FMDV 2A StopGo reporter, luciferase signal. AID 1159524. human cells with a luciferase reporter of 2A StopGo recoding; control for the full effect not named in the record. 1.2% of 410,000 active. Potency, µM (titrated, usually from 57.9 µM), inactives show at the top dose signal change, negative = less light; active = well fitted falling curve with a large enough effect; inconclusive = small, poorly fitted or top-dose-only effect; inactive = no such curve, though single readings can be large or run the other way; tested in HEK293T cells; also: % is scaled to controls: 0 for no effect and ±100 for the full control effect; nearly all actives have a fitted effect of over 45% in size; luciferase light after 4 h
* hit, by the source's call; ? = inconclusive; nt = no result given; & = joins results of further samples; [ ] = dose if it differs, or a comment. Unless noted, calls follow the shape of the dose curve; as a rule, active means well fitted rising curve with a large enough effect; inconclusive means small, poorly fitted or top-dose-only effect; inactive means no such curve, though single readings can be large or run the other way. Potency is read from the fitted curve at half-maximal effect.

SMILES | Cruzain noTriton | SARS PLP yeast | RE007 growth inh | Cruzain Triton | NS1 inh | MARV entry inh | LASV entry inh | 2A StopGo
CC(C)C(=O)Nc1ccc(C(=O)Nc2ccc(S(=O)(=O)N3CCOCC3)cc2)cc1 | nt | -5% | -10% | nt | 1% | nt | nt | ?
CCOC(=O)CSc1nnc(CNC(=O)c2ccco2)n1-c1ccc(F)cc1 | 12% | -3% | 8% | 1.3% | -15% | 8% | 3% | 11%
Cc1ccc(C(=O)Nc2ccccc2F)cc1S(=O)(=O)N1CCOCC1 | 8% | nt | nt | -0.4% | nt | nt | 1%[46.1 µM] | 39%[activator]
O=C(Nc1cc(SCCO)cc([N+](=O)[O-])c1)c1ccc(Br)o1 | -10% | -5% | 3% | -8.1% | -4% | ? | ? | 32µM*
Cc1cccc(-n2c(SCC(=O)N(C)C3CCS(=O)(=O)C3)nc3ccccc3c2=O)c1C (configuration not stated) | nt | 6% | -3% | nt | nt | -13% | -1% | -2%
COC(=O)c1cccc2c1-c1ccccc1/C2=N\NC(N)=O | nt | 0% | 1% | nt | -9% | nt | nt | 0%
Cc1ccc(S(=O)(=O)c2c(Nc3ccc(C)c(C)c3)sc(C(=O)c3ccc4c(c3)OCO4)c2N)cc1 | 2.5µM* | nt | nt | -2.4% | nt | nt | ? | 22%
CCCn1c(=O)n(C)c(=O)c2c(SCC(=O)NCc3ccco3)nc(C3CC3)nc21 | -1% | 0% | -8% | 4.6% | -3% | ? | ? | ?
COc1cc(N/C=C2\CC(=O)NC(C)=C2C#N)cc(OC)c1OC | nt | 0% | -10% | nt | nt | -23%[46.1 µM] | -9% | -13%
COc1cccc(CNC(=O)C(=O)NCCC2CCCCN2S(=O)(=O)c2ccc(C)cc2)c1 (configuration not stated) | nt | -4% | -12% | nt | nt | ? | ? | ?
CCCCc1c(O)nc2ccccn2c1=O | 6% | -7% | 2% | -2.0% | 8% | 4% | 0% | 15%
COc1cccc(NC(=S)N2CCC(NC(=O)C3CCCCC3)CC2)c1 | nt | 1% | 14% | nt | 10% | 3%[46.1 µM] | 10% | 6%
COc1cccc(-c2cc(C(=O)NCc3ccccc3)[nH]n2)c1 | 10% | nt | nt | -6.7% | nt | nt | 7.9µM* | 50%[activator]
COc1ccc(C)cc1NC(=O)CSc1nnc(CC(=O)Nc2ccccc2F)n1C | nt | -4% | 19% | nt | nt | -10%[46.1 µM] | nt | 22%
CCOc1ccc(OCCCCOc2ccccc2C(C)=O)cc1 | -5% | 3% | 4% | -3.8% | -10% | -13% | 16% | -26%
O=C(Nc1nc(=O)c2ccccc2s1)c1ccc(Cl)cc1 | 10µM* | -1% | 17% | -1.7% | 26% | -4% | 14% | 22%
COc1cc2c(cc1OC)C1(CCCC1)CNC2C (configuration not stated) | -3% | -26% | 0% | 1.0% | -3% | ? | -5% | nt
O=C(Cn1c(=O)c2ccccc2n(CC(=O)Nc2ccc(F)cc2F)c1=O)NCCc1ccccc1 | 4% | nt | nt | -1.3% | nt | -5%[46.1 µM] | 27%[46.1 µM] | 9%
CCOc1ccc2c(=O)c(-c3ccc4c(c3)OCCCO4)c(C)oc2c1 | -22% | 3% | 4% | -4.7% | 3% | -17% | 12% | ?
O=C(OCCNC(=O)c1ccc2ccccc2n1)c1cccnc1 | -4% | -6% | -8% | 0.8% | -20% | -4% | 12% | nt
COc1ccc(NC(=O)CN(c2ccc(C)cc2)S(=O)(=O)c2c(C)nn(C)c2C)cc1 | nt | -4% | 14% | nt | -1% | nt | nt | -22%
Cc1ccccc1N(CC(=O)N/N=C/c1ccc(Cl)cc1)C(=O)c1ccccc1 | 5% | -3% | 3% | -12% | 7% | ? | ? | ?
Cc1cccc(C)c1NC(=O)COC(=O)c1ccccc1Nc1ccccc1 | ? | -4% | 10% | -2.5% | 1% | -18% | ? | -22%
CCCCCOC(=O)Cn1c(SCC(=O)Nc2ccccc2)nc2c1c(=O)[nH]c(=O)n2C | -25% | 1% | 9% | -8.3% | 6% | -22%&-22% | -9% | 0%
Cn1c(=O)c(Nc2ccc(Cl)cc2)c2c3c(cccc31)C(=O)c1ccccc1-2 | nt | 2% | 1% | nt | nt | ? | ? | 0%
CCN(CC(=O)Nc1ccc2c(c1)OCCO2)Cc1nc2cc(Cl)ccc2c(=O)[nH]1 | nt | 1% | -22% | nt | nt | 9% | -23% | -18%
COCCCC1CCN(C(=O)C2CCC(=O)N(CC3CCCCC3)C2)CC1 (configuration not stated) | nt | 4% | 8% | nt | -6% | -1% | 2% | -10%
COc1ccc2c(c1)cc1c(=O)n(CC(=O)NC(C)C)nc(C)n12 | 6% | nt | nt | 0.4% | nt | 3%[46.1 µM] | nt | -9%
CCOC(=O)C(/C(C)=N/NC(=O)c1ccccc1[N+](=O)[O-])C(C)C (configuration not stated) | -3% | -3% | -10% | -1.8% | 1% | 4% | 2% | -22%
COc1ccc(NC(=O)c2ccc3ncsc3c2)c2ccccc12 | nt | -6% | -3% | nt | -6% | 31% | -8% | 3%
CCc1ccc(NC(=O)CCn2c(-c3ccc(OC)cc3)cc(C(C)=O)c2C)cc1 | 6% | nt | nt | -7.1% | nt | nt | -9%[46.1 µM] | -24%
CCCn1c(-c2cccc([N+](=O)[O-])c2)nc2c1c(=O)[nH]c(=O)n2Cc1ccccc1 | -1% | -16% | 5% | -5.4% | 6% | ? | ? | ?
COc1ccc(C(=O)CC(=O)C(=O)Nc2ccc(C)c(Cl)c2)cc1 | nt | 3% | 0% | nt | 0% | nt | nt | 0%
CN1CCN(CC(=O)Nc2c(C(=O)c3ccccc3)oc3ccccc23)CC1 | nt | 0% | 4% | nt | 5% | ? | ? | -27%
COC(=O)CSC1=C(C#N)C(c2ccc(C(C)C)cc2)CC(=O)N1 (configuration not stated) | -26% | -13% | -2% | 1.0% | -7% | nt | nt | -22%
COc1ccc(C(=O)NCC(=O)OCC(=O)Nc2cc([N+](=O)[O-])ccc2F)cc1 | nt | 2% | -5% | nt | nt | 5%[46.1 µM] | 11% | -2%
Cc1cc(C)c(S(=O)(=O)NCC(c2ccco2)S(=O)(=O)c2cccs2)c(C)c1 (configuration not stated) | 2% | nt | nt | -4.1% | nt | nt | ? | 45%[activator]
O=C(c1ccc(S(=O)(=O)N2CCOCC2)cc1)N1CCN(C2=NS(=O)(=O)c3ccccc32)CC1 | 6% | 12% | -3% | 5.6% | 1% | 20% | -1% | 5%
O=C(Cc1ccccc1)NCC(=O)N/N=C/c1ccc(Cl)cc1 | nt | -6% | -6% | nt | 1% | nt | nt | -5%
O=C(COC(=O)C1CC(=O)N(c2ccc3c(c2)OCCO3)C1)Nc1ccc2c(c1)CCC2 (configuration not stated) | 7% | -2% | 3% | -5.4% | -49% | 12% | 8% | -12%
Cc1ccccc1Cn1c(=O)n(Cc2ccco2)c(=O)c2sc3ccccc3c21 | ? | nt | nt | -12% | nt | ? | 0%[46.1 µM] | 0%
CCCCNC(=O)N1CCN(Cc2ccc(F)cc2)CC1 | nt | 0% | -8% | nt | 5% | 11% | -8% | -21%
O=C(CCc1nnc(CCCCc2ccccc2)o1)N1CCCCC1CCO (configuration not stated) | nt | -1% | 8% | nt | -3% | nt | nt | -21%
Cc1cc(C)nc(Nc2nc(-c3ccccc3)cs2)n1 | nt | 9% | -13% | nt | -23% | nt | nt | -50%
CN(C(=O)Cc1ccccc1)n1cnnc1 | 1% | 2% | 6% | 0.1% | -1% | 6% | 3% | -7%
COc1cc2cc(CN(CCc3cccc(C)c3)C(=S)NCCCN(C)C)c(=O)[nH]c2cc1OC | 7% | 1% | nt | -2.3% | 2% | ? | ? | -19%
CCC(=O)NCCc1nc2cc(NC(=O)c3cccc(Br)c3)ccc2n1C | -7% | nt | nt | -0.3% | nt | nt | 29%[46.1 µM] | 1%
CCOCCCNCC(=O)Nc1ccccc1N1CCOCC1 | 0% | 2% | 7% | 0.9% | -4% | -4% | 10% | -13%
CN1CCN(c2ccccc2NC(=O)c2ccc(F)cc2)CC1 | nt | 0% | -3% | nt | -3% | nt | nt | -20%
CC(C)(C)c1ccccc1NC(=O)c1ccco1 | -4% | -2% | 7% | 1.4% | -3% | 14% | -24% | nt
COc1ccc2oc(C(=O)CCC(=O)O)c(N)c2c1 | -14% | 3% | -16% | -4.8% | 2% | nt | nt | -5%
CC(=O)Nc1ccc(S(=O)(=O)Nc2ccccc2C(=O)N2CCOCC2)cc1 | nt | 1% | 1% | nt | 3% | -1%[46.1 µM] | -4% | 0%
Oc1ccccc1C1CC(c2cccs2)=NC(c2ccc(Cl)cc2)N1 (configuration not stated) | nt | -6% | ? | nt | -50% | nt | nt | -15%
Cc1cc(C=O)c(C)n1-c1ccc(NC2CCCC2)c([N+](=O)[O-])c1 | -27% | -18% | 1% | -9.8% | -45% | ? | ? | -28%
COc1ccc(C)cc1NS(=O)(=O)c1cccc2nonc12 | -11% | 7% | -10% | -0.2% | -5% | 1% | -7% | 21%
CCC(C)c1ccc(S(=O)(=O)N2CCN(CC(O)COCC3CCCO3)CC2)cc1 (configuration not stated) | nt | 1% | 8% | nt | nt | 15% | 14% | -15%
Cc1cc(C)n2nc(SCC(=O)NCc3ccco3)nc2n1 | 2% | 3% | -5% | 4.0% | -2% | 22% | -4% | -11%
Cc1ccc(NS(=O)(=O)c2c(C(=O)N3CCOCC3)c(C)n(C)c2C)cc1C | nt | -3% | 0% | nt | 2% | 8%[46.1 µM] | -1%[46.1 µM] | 45%[activator]
CCCN(CCC)CCc1cccc2c1CC(=O)N2 | -6%&6% | nt | nt | -12%&2.1% | 0% | -6%&-6%&-4%&-6%&-6%&-6% | 13% | -11%
COC(=O)c1ccc(CSc2nc(C(F)F)cc(C)c2C#N)o1 | nt | nt | 4% | nt | nt | -22% | -18% | 0%
Other results.
SMILES | Cruzain noTriton | SARS PLP yeast | RE007 growth inh | Cruzain Triton | NS1 inh | MARV entry inh | LASV entry inh | 2A StopGo
CC(C)CCn1cnc2c([nH]c3cccc(Cl)c32)c1=O | ? | 2% | 7% | 2.4% | -8% | 4% | 6% | -9%
CC(=O)c1ccccc1NC(=O)CN1C(=O)NC2(CCCCCCC2)C1=O | nt | nt | -5% | nt | nt | -10%[46.1 µM] | 12% | -4%
O=C(CSc1nccn1-c1ccccc1)NCc1ccc(F)cc1 | nt | -2% | 5% | nt | nt | 9% | 1% | -1%
O=C(CN1C(=O)C(=O)c2ccccc21)NC1CCCCC1 | -5% | -2% | -21% | -1.5% | 2% | -25% | 2% | -7%
